Screens: PubChem, several laboratories
Calb FLC: C. albicans growth modulation with fluconazole; C. albicans CaCi-2 (fluconazole-resistant clinical isolate) + fluconazole, Alamar Blue growth, 48 h; growth inhibition, % (no concentration beside the values); 300,000 compounds, 0.57% hits; AID 1979;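 active = most replicates above 75%; inconclusive = exactly half above 75%; inactive = most below 75%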;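 note: all wells also contain fluconazole at 8 µg/ml as a sub-toxic cotreatment; 0% = median of DMSO wells and 100% = median of geldanamycin control wells; wells of about 8 µL received 7.5 nL stock; the first replicate is given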
ALR inh: blocks human ALR sulfhydryl oxidase activity; purified ALR, DTT oxidation, H2O2 HRP-luminol luminescence; 290,000 compounds, 3.8% hits; inhibition, % (concentration not given with the values); P55789; AID 485317;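 active = mean and each replicate at 75% or more; inconclusive = only one of the two met; inactive = neither met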;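 note: stock transfer was 7.5 nL into about 7.5 µL; 0% = neutral wells and 100% = wells with inactivated enzyme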
Target sequence (P55789 whole entry, looked up): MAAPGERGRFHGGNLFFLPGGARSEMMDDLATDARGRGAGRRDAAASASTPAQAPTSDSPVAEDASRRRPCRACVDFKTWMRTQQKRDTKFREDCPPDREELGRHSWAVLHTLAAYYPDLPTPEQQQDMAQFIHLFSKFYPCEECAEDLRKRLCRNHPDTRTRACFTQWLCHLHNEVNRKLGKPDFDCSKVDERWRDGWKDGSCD
HNF4A DNA FP: change in binding of human HNF4 alpha to DNA | P41235 | 360,000 compounds, 0.3% hits | HNF4a-FITC DNA binding, fluorescence polarization, 1 h | activity change, % at 10 µM; in the data active = activity change above about 30%, passing the limit was not always enough;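 note: controls were the assay level and a saturating level of protein; the project sought stronger binding though the title names inhibitors; some compounds called inactive have numbers as strong as hits; positive values seem to mean higher polarization but the record does not say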
Target sequence (P41235 whole entry, looked up): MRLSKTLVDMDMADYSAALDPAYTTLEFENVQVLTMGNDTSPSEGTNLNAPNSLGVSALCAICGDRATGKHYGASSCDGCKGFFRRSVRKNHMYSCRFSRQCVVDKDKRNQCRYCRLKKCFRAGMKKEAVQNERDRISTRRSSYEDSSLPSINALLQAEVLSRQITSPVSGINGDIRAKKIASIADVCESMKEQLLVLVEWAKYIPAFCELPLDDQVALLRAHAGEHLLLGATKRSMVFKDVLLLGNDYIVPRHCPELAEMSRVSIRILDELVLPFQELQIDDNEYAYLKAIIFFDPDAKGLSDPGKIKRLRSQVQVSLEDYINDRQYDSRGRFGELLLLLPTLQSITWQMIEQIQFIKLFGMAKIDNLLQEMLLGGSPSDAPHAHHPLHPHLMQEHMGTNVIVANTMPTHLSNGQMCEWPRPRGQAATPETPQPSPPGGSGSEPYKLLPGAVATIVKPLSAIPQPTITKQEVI
Vif TR-FRET: inhibitors of Vif binding to APOBEC3G peptide, primary screen, biochemical, TR-FRET, GST-Vif 1-94, biotin-A3G peptide, dose response retest (AID 1117319). inhibition, %; hits with a dose series show IC50 in µM. 260,000 compounds, 0.57% hits. TR-FRET GST-Vif / biotin-A3G peptide binding; higher % means a stronger effect; test concentration not given here; strong numbers were not always called active;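 active = above the screen mean plus three standard deviations and confirmed in dose response; inconclusive = results disagree or hit not tested in dose response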;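 note: Vif residues 1-94 fused to GST binding biotinylated APOBEC3G peptide 110-148; 0% = full assay without inhibitor and 100% = GST in place of GST-Vif; retest series ran down from 100 µM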
LANA-H2B inh: blocks KSHV LANA binding to histone H2A/H2B. Q9QR71. cell-free LANA-H2A/H2B peptide, fluorescence polarization. inhibition, % (test concentration not listed). 320,000 compounds, 0.6% hits. AID 2629; in the data active = inhibition mostly above about 10%, no sharp cut-off; inactive = mostly below about 6.7%;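 note: stock transfer was 7.5 nL into about 10 µL; 0% = median of vehicle wells and 100% = median of positive control wells; one replicate is shown; the record names a cut of 25% in any replicate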
RanGTP-Impb inh: disruptors of Ran-importin-beta complex formation – biochemical, FRET, CFP-Ran, YFP-importin-beta, homogeneous, primary screen; cell-free CFP-Ran/YFP-importin-beta FRET ratio; inhibition, % (no concentration beside the values); 300,000 compounds, 1.1% hits; AID 2216;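 active = most replicates above 15%; inconclusive = exactly half above 15%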;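 note: 0% = DMSO wells and 100% = Ran loaded with GDP instead of GTP; wells of about 40 µL received 100 nL stock; the first replicate is given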
B2AR ag: human beta-2 adrenergic receptor agonism by FAP | response, % (no concentration beside the values) | P07550 | 340,000 compounds, 0.43% hits | AID 504454 | Am2.2-beta2AR cells, FAP receptor internalization, flow cytometry; reference of the scale not given here;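 active = response above a set limit, near 3 SD of response in nonfluorescent compounds, cut at about 42% in these data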;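 note: stock transfer was 100 nL into about 11 µL; a reference agonist was the positive control; negative values mostly stem from fluorescent compounds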
Target sequence (P07550 whole entry, looked up): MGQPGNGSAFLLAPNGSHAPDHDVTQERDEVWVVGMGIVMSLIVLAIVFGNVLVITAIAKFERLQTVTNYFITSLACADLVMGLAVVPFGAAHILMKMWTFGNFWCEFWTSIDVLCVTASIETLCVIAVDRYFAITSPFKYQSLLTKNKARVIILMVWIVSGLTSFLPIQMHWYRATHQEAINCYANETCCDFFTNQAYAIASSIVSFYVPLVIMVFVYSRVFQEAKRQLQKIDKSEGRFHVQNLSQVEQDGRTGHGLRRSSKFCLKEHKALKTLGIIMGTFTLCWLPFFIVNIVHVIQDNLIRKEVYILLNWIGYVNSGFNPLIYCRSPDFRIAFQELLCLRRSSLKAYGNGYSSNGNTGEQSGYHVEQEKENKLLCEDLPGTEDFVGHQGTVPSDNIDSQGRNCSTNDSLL
An asterisk follows results filed as active; ? = inconclusive; . = no result given.

SMILES	Calb FLC	ALR inh	HNF4A DNA FP	Vif TR-FRET	LANA-H2B inh	RanGTP-Impb inh	B2AR ag
C=CCc1ccccc1OCC(O)CN1CCN(c2ccc(OC)cc2)CC1 (centres undefined)	-2.4	36.9	1.2	?	-2.6	1.8	-6.1
O=C(Nc1ccc(N2CCOCC2)cc1)C1CCN(S(=O)(=O)c2ccccc2F)CC1	-0.8	-0.4	0.2	11.7%	-1.9	?	-1.7
CN(CC(=O)NCc1ccccn1)S(=O)(=O)c1ccc(F)cc1	-6.9	-4.9	-2.2	-17.1%	-0.8	-0.1	-4.5
O=S(=O)(c1ccc(Cl)cc1)N1CCN(c2ccccn2)CC1	5.2	-3.0	-0.9	.	-1.7	0.0	-9.0
S=C(NCc1ccncc1)Nc1ccc(Cl)cc1	-6.8	.	1.0	-8.5%	-2.6	-0.1	-4.8
O=S(=O)(Nc1ccc(N2CCOCC2)cc1)c1cccs1	-2.6	98.0*	7.8	?	-1.0	-2.5	-0.9
Cn1cc(Br)c(C(=O)N/N=C/c2cc3c(cc2Cl)OCO3)n1	13.9	.	-0.9	.	.	1.6	0.3
Cc1csc(NC(=O)CNS(=O)(=O)c2cccs2)n1	-15.7	-7.6	4.0	-3.4%	-1.0	-6.2	0.5
NC(=O)NCCc1ccccc1	7.6	-4.3	1.6	.	5.5	?	-2.6
COc1ccc(-n2nc(C(=O)NCC(=O)Nc3cccc(C)n3)c3ccccc3c2=O)cc1	-5.7	.	2.0	-25.5%	1.4	-3.5	9.9
COc1ccc(CNC(=O)CCC(=O)Nc2cccnc2)cc1	-7.8	-6.6	-1.7	.	-6.7	3.4	-0.3
Cn1c(N2CCN(C(c3ccccc3)c3ccccc3)CC2)nc2ccccc21	6.1	-1.2	-1.3	-2.7%	-14.3	4.4	17.5
COc1ccc(OC)c2[nH]c(=O)c(CCNC(=O)C(C)(C)C)cc12	1.3	-201.3	0.5	4.3%	-2.1	?	6.0
O=C(O)CCSc1nc(C(F)(F)F)cc(=O)n1-c1ccccc1	-4.7	-9.3	1.6	0.7%	0.3	2.5	-0.5
COc1cc(NC(=O)Cc2ccc([N+](=O)[O-])cc2)c(C(=O)O)cc1OC	8.3	-21.8	-3.1	-6.1%	1.0	-1.0	8.0

3 compounds from above, ordered by the number in HNF4A DNA FP, falling.
mol	ALR inh	HNF4A DNA FP	Vif TR-FRET	LANA-H2B inh	RanGTP-Impb inh	B2AR ag
O=C(O)CCSc1nc(C(F)(F)F)cc(=O)n1-c1ccccc1	-9.3	1.6	0.7%	0.3	2.5	-0.5
O=S(=O)(c1ccc(Cl)cc1)N1CCN(c2ccccn2)CC1	-3.0	-0.9	.	-1.7	0.0	-9.0
COc1cc(NC(=O)Cc2ccc([N+](=O)[O-])cc2)c(C(=O)O)cc1OC	-21.8	-3.1	-6.1%	1.0	-1.0	8.0

Additional structures follow.
SMILES	Calb FLC	ALR inh	HNF4A DNA FP	Vif TR-FRET	LANA-H2B inh	RanGTP-Impb inh	B2AR ag
COc1ccc(CN2C(=O)c3ccccc3C(/C=N\OCc3ccc(C)cc3)C2=O)cc1 (centres undefined)	-10.8	0.6	23.2	2.5%	-3.2	-1.0	-1.4
Cc1cc(C(=O)N/N=C/c2ccc([N+](=O)[O-])cc2)c(C)o1	-2.3	-6.3	-1.4	-5.7%	-1.9	.	-4.2
N#CCSCC(=O)Nc1ccc(F)cc1	-11.3	-5.4	-2.6	5.0%	2.7	-2.4	1.1
O=C(NCC(=O)N(Cc1cccs1)C(C(=O)NC1CCCC1)c1ccco1)c1cccs1 (centres undefined)	-2.5	-6.4	-0.6	-1.8%	0.2	?	-6.3
CCn1ccnc1CN1CCc2c([nH]c3ccccc23)C1C(C)(C)C (centres undefined)	-6.0	55.6	0.6	24.0%	-3.3	1.6	20.7
O=C(N=C1SC2CS(=O)(=O)CC2N1c1ccccc1)c1ccccc1 (centres undefined)	.	-1.7	3.0	-0.6%	4.4	.	-3.9
O=C(Nc1nnc(S(=O)(=O)N2CCOCC2)s1)c1cccc(F)c1	-12.5	29.1	5.7	.	-1.3	3.5	-10.5
Cc1ccc(C2(CCNS(=O)(=O)c3ccc(C)cc3)CCOC(C(C)C)C2)cc1 (centres undefined)	-12.4	.	0.0	24.4%	.	-6.3	3.6
COc1ccc(CCNC(=O)C2CCCN2C(=O)NC2CCCCC2)cc1OC (centres undefined)	6.5	1.9	-0.8	-9.9%	-2.1	?	2.8
Cc1cccn2c(=O)c(/C=C(\C#N)C(=O)NC3CCS(=O)(=O)C3)c(Oc3ccccc3Cl)nc12 (centres undefined)	0.5	21.3	-4.6	.	0.3	160.1*	6.3
COc1ccc(CC(=O)Nc2sc3c(c2C(N)=O)CCCC3)cc1OC	2.4	.	-5.0	.	0.8	1.8	-14.8
O=C(CCS(=O)(=O)c1ccc2c(c1)NC(=O)CO2)NCc1ccccc1	-3.4	0.1	1.7	-5.2%	0.1	1.9	-5.5
CCOC(=O)C(NC(=O)c1ccccc1)C(C)(C)SCc1ccccc1 (centres undefined)	.	.	8.7	-8.2%	.	.	-1.2
CSc1nc(NCc2ccco2)c2sc3nc(C(C)C)c4c(c3c2n1)CC(C)(C)OC4	-0.1	-12.3	6.0	-0.5%	-5.6	3.0	10.2
O=C(COc1ccc(C2SCCS2)cc1)Nc1ccc(Cl)cc1	5.7	.	2.0	-7.9%	0.4	-3.7	-0.1
CCOc1ccc(S(=O)(=O)n2nc(C)cc2C)c2ccccc12	-4.5	-22.7	-1.4	-4.0%	-0.1	5.8	8.4
CCC(C)NCCCCOc1ccc(Br)cc1 (centres undefined)	-1.3	3.9	-1.4	-1.1%	6.1	3.6	7.6
O=C(CNc1ccccc1)Nc1cccc2ccccc12	0.6	-18.6	-4.5	14.0%	-4.0	-1.5	5.9
CC(C)(C)CC(C)(C)NC(=S)N1CCN(Cc2ccc3c(c2)OCO3)CC1	22.2	-20.6	7.7	-2.3%	15.0	0.0	-16.0
Cc1cccc(CS(=O)(=O)c2ncc(Cl)c(C(=O)Nc3c(C)cccc3C)n2)c1	-0.8	98.1*	4.0	.	.	-0.9	29.7
COc1ccccc1NC(=O)COc1ccc(C(=O)OCC(=O)N2CCCC2=O)cc1OC	0.3	2.0	-5.2	19.0%	1.0	0.7	-3.0
CCCCN1C(N)=NC[C@@H]1C(C)O (some centres undefined)	-10.4	-0.9	0.5	.	1.5	-3.1	-14.6
Cc1cc(SCc2ccc(F)cc2)nc(=O)[nH]1	-24.5	-3.0	7.3	.	-4.0	0.7	2.6
N#CC(C#N)=C/C=C(\Nc1ccc(Cl)cc1)c1ccc(Cl)cc1	-6.1	-1.3	1.4	-1.8%	-2.1	65.8*	0.9
CC1(C)Cc2c(sc(NC(=O)C(=O)N3CCN(CCO)CC3)c2C(N)=O)CO1	0.6	-6.5	2.9	1.6%	-0.5	?	1.1
Cc1ccc(OCCC(=O)OCC(=O)Nc2cc(C)nn2-c2ccccc2)cc1	0.6	25.3	2.7	-2.5%	5.7	5.0	1.7
Cc1ccc(/C=N/NC(=O)C[n+]2ccccc2)o1	-40.4	-18.3	2.0	12.2%	-8.2	5.4	1.2
Nn1c(-c2ccc(F)cc2)nc2ccccc2c1=O	4.2	-4.6	-0.2	-4.8%	0.5	0.4	-2.2
Cc1c(Nc2ncnc3c2cnn3-c2ccccc2)c(=O)n(-c2ccccc2)n1C	-14.5	1.5	1.5	0.8%	1.5	-0.2	-1.8
C=CCc1cccc(/C=N/NC(=O)CNc2ccccc2)c1O	-5.6	-2.3	1.1	4.5%	-6.5	-2.5	3.0
Cc1c(C(=O)O)nn(-c2cccc(C(F)(F)F)c2)c(=O)c1C#N	-1.0	-26.0	-3.0	.	-2.8	1.4	-1.3
Cc1nc(Cl)sc1C(=O)Nc1ccc(C(C)(C)C)cc1	16.5	-0.7	0.3	-2.0%	-4.4	1.6	-2.0
COc1cc2nc(C(C)(C)C)oc(=O)c2cc1OC	-7.7	-35.8	-0.8	.	1.5	-2.0	-0.3
CCCCCNC(=O)c1cc(S(=O)(=O)N2CCCC2)ccc1F	-8.4	-13.5	2.2	-7.9%	0.5	-0.1	-3.7
CC(C)(C)c1cc[n+](C2=C([O-])c3ccccc3C(=O)/C2=N\S(=O)(=O)c2cccs2)cc1	57.0	-24.9	-4.6	.	-3.5	3.5	1.2
O=C(CC1C(=O)CCCC1=O)c1ccccc1	-27.6	-20.9	1.9	4.5%	-4.9	1.1	-2.9
CCCNC(=O)COc1coc(CN2CCN(C(=O)c3ccco3)CC2)cc1=O	-5.9	-0.4	-2.4	-2.7%	4.2	-3.3	-3.8
CCCCCOc1ccc(NC(=O)C(=O)NCCC2=CCCCC2)cc1	2.8	-1.9	-4.5	-0.9%	6.2	2.8	1.1
O=C(CSc1ccc(-c2ccc3c(c2)OCO3)nn1)Nc1nccs1	8.2	-10.4	3.6	.	-2.2	2.5	3.5
C/C(=N\Nc1ccc([N+](=O)[O-])cc1[N+](=O)[O-])C(C)C(C)C (centres undefined)	-8.4	-13.3	-0.8	.	1.9	1.1	2.4
NS(=O)(=O)c1ccc(Nc2nc3ccccc3nc2NS(=O)(=O)c2cccc([N+](=O)[O-])c2)cc1	24.9	40.9	-2.1	18.9%	-4.4	7.4	-7.5
CCCOc1ccc(/C=N/NC(=O)C2CC2)c(OCCC)c1	-6.8	0.5	3.9	.	-1.4	8.3	-16.2
CCCOC(=O)c1ccc(-c2c(C)noc2-c2ccc(OC)cc2O)o1	.	-3.0	0.5	-6.0%	-1.1	5.5	-6.2
Cc1cc(Cl)ccc1NC(=O)COC(=O)c1nc2nccc(C)n2n1	19.5	-14.8	4.6	-0.6%	-0.1	7.1	2.4
Cc1ccc(S(=O)(=O)N2CCC(=O)CC2c2ccccc2)cc1 (centres undefined)	.	.	2.1	-4.4%	.	.	1.0
O=C(O)c1ccc(Cl)c(NCc2cccs2)c1	5.4	-2.5	1.4	.	-1.7	-1.2	-1.1
CC(C)=CC(=O)Nc1ccccc1Br	-4.4	-5.0	2.4	8.6%	7.7	2.4	0.3
O=C(COC(=O)CNC(=O)c1ccccc1)Nc1ccccc1Cl	2.6	.	-0.9	-3.8%	-3.5	-2.0	10.2
COc1ccc(-c2noc(CCC(=O)Nc3cccnc3)n2)cc1OC	-17.7	-4.1	5.1	3.1%	4.5	-0.5	3.5
Cc1cccc(NC(=O)Cn2cc(C=O)c3ccccc32)c1	.	-7.6	0.3	-8.0%	0.0	-2.3	-5.8
Cc1ccc(NS(=O)(=O)c2ccc(NC(=O)CN(c3cc([N+](=O)[O-])ccc3C)S(C)(=O)=O)cc2)c(C)c1	10.9	-0.9	2.5	28.9%	-0.7	-1.2	15.9
O=C(NNC(=O)c1cc([N+](=O)[O-])ccc1Cl)c1cccs1	8.6	-0.4	-5.5	.	-0.5	1.5	5.4
OC1(c2ccccc2)CCN(Cc2ccccc2)CC1	-11.6	-0.1	0.8	.	-2.8	1.3	7.7
NC(=O)C1CCN(C(=O)c2ccc(F)c(S(=O)(=O)N3CCOCC3)c2)CC1	.	.	-0.1	.	-3.6	.	-7.0
S=C(Nc1cc(Cl)ccc1Oc1ccccc1)N1CCN(c2ccccn2)CC1	16.2	-1.8	7.6	-5.0%	-2.6	-2.3	-7.8
COC(=O)c1ccc(NC(=O)CNCc2ccncc2)cc1	-5.2	.	6.0	12.5%	-7.9	?	-0.3
NC(=O)c1ccc(N=Nc2c(-c3ccccc3)[nH]n(-c3ccccc3)c2=O)cc1	-0.5	-7.0	.	.	1.0	0.7	.
CC(C)C[C@@H](CO)N1CCN(Cc2cccnc2)CCC1=O	-2.8	1.2	7.3	.	3.3	-2.2	-2.2
COC(=O)c1cc(C(=O)NCc2ccccc2)c(=O)[nH]c1C	-1.9	-1.6	2.7	19.1%	2.2	3.1	-6.8
CCO[C@@H]1OC(C(=O)NCc2ccccc2)=C[C@H](c2ccc(Br)cc2)[C@H]1CCCO	19.9	-0.9	-4.3	.	-1.0	7.5	2.3
